Screening results (PubChem BioAssay)
H5N1 CPE: antiviral screen in MDCK cells, H5N1 avian flu | cytopathic effect, luminescence, 72 h; stronger effect = higher value; no value below 0 was filed and about half of the inactive calls have no number; reference of the scale not given here | inhibition, % at 50 µM | 96,000 compounds, 0.07% hits | AID 740; in the data active = inhibition above about 25%
The depositor's hits bear a star; i = inactive. An excerpt; count on the stated rates, not on these rows.

canonical_smiles,H5N1 CPE
CCS(=O)(=O)N1CCC(C(=O)NCc2cc(OC)ccc2OC)CC1,1.1
Cc1cccc(CCNC(=O)CN(C)S(=O)(=O)c2ccc3c(c2)c(=O)n(C)c(=O)n3C)c1,2.3
CC(=O)C1=C(O)C(=O)N(c2cccnc2)C1c1ccc(Cl)cc1 (stereo unspecified),0.1
Fc1cccc(Cl)c1CNCc1ccccc1Cl,i
O=C(CCCn1cnc([N+](=O)[O-])n1)Nc1ccc(Cl)c(Cl)c1,i
OCCN(C=NC1=NN(c2cccc(C(F)(F)F)c2)CC1)CCO,i
CCc1ccc(Cn2nnc(C(=O)NCc3ccccc3OC)c2N)cc1,0.7
Cc1ccc(-n2ncc3c(=O)[nH]c(SCC(=O)N4CCCc5ccccc54)nc32)cc1,3.1

The final four records of the section before open the next one:
canonical_smiles,H5N1 CPE
O=C(CCCn1cnc([N+](=O)[O-])n1)Nc1ccc(Cl)c(Cl)c1,i
OCCN(C=NC1=NN(c2cccc(C(F)(F)F)c2)CC1)CCO,i
CCc1ccc(Cn2nnc(C(=O)NCc3ccccc3OC)c2N)cc1,0.7
Cc1ccc(-n2ncc3c(=O)[nH]c(SCC(=O)N4CCCc5ccccc54)nc32)cc1,3.1
COCCCn1c(-c2ccsc2)nc2c1c(=O)[nH]c(=O)n2Cc1ccccc1,0.1
O=C(Cn1ncc2c(=O)oc3ccccc3c21)Nc1nc2ccccc2s1,2.2
CCOC(=O)C1C(=O)CC(C)(O)C(C(=O)OCC)C1c1ccc(OC)cc1 (stereo unspecified),i
c1ccc(-n2ncc3c(N4CCCCC4)ncnc32)cc1,i
CCn1c2ccccc2c2nnc(SCC(=O)Nc3ncccn3)nc21,2.3
CCn1c(SCc2ccc(C(=O)OC)o2)nnc1-c1c[nH]c2ccccc12,0.6
CCN1CCN(CC(=O)N2c3ccccc3CC2C)CC1 (stereo unspecified),i
COc1ccccc1NS(=O)(=O)c1ccc(Br)s1,0.3
CN(CC(CC(=O)Nc1nncs1)c1ccccc1)S(=O)(=O)c1ccc(Br)cc1 (stereo unspecified),3.2
CCCCOc1ccc(OCCCC)c2c1NC1(N2)C(=O)N(C(C)=O)c2ccccc21,i
CC(C)(C)c1ccc(OCC(=O)OCCNC(=O)c2cccnc2)cc1,0.6
Brc1ccc(Nc2nc3ccccc3n3nnnc23)cc1,0.7
CCOC(=O)C1(S(=O)(=O)c2ccc(Cl)cc2)CCN(Cc2ccc(C)cc2)CC1,i
C=CCNC(=O)c1ccc(Sc2ccc(C)cc2)c([N+](=O)[O-])c1,i
CCOC(=O)Cn1c(=O)oc2cc(S(=O)(=O)N3CCn4c3nc3ccccc34)ccc21,1.1
Cn1nnnc1SCC(=O)NCc1ccco1,i
CCC(C)NS(=O)(=O)c1ccc(OCC(=O)N2CCCCC2)cc1 (stereo unspecified),0.1
O=C(CSc1nc2ccccc2[nH]1)Nc1c(F)cccc1F,i
Cc1cc2c(c(=O)n1Cc1ccc3c(c1)OCO3)C(c1cccnc1)C(C#N)=C(N)O2 (stereo unspecified),1.4
CC(C)CNS(=O)(=O)c1ccc(S(=O)(=O)N2CCN(CCC#N)CC2)cc1,1.6
CN(C)CCNC(=O)C1CCCNC1=O (stereo unspecified),0.1
O=C(CCC(=O)c1cccs1)OCC(=O)N1CCN(C(=O)c2ccco2)CC1,i
CCN(CC)C(=O)CSc1nnc(SCc2ccc(Cl)cc2)s1,1.7
COC(=O)c1cc(-c2ccc(Br)cc2)on1,0.6
CCn1c(CC(=O)Nc2ccccc2F)nnc1SCC(=O)N1CCN(c2ccccc2)CC1,1.3
O=C(c1cccc(N2C(=O)C3CC=CCC3C2=O)c1)N1CCN(c2ccccc2)CC1 (stereo unspecified),0.2
O=C(Oc1ccc(OC(=O)c2ccco2)c(S(=O)(=O)c2ccc(Br)cc2)c1)c1ccco1,0.2
Brc1ccc(NC2=Nc3ccccc3CC2)cc1,i
Cc1nc(C)c(C(=O)NCc2ccccc2Cl)o1,0.9
COc1ccc(C(C)=O)c(OC(=O)c2ccc(OC)c(OC)c2)c1,1.6
Cn1c(=O)c2cn(-c3ccc4c(c3)OCCO4)cc2n(C)c1=O,1.9
COC(=O)c1cc(Br)c(=O)n(Cc2cccnc2)c1,1.4
Cc1ccc(N(CC(=O)Nc2ccccc2C(=O)NCc2ccco2)S(=O)(=O)c2ccccc2)cc1C,2.4
CCOC(=O)C1CSc2[nH]c(=O)sc2C1c1ccccc1 (stereo unspecified),1.7
CCOc1ccccc1N1CCN(C(=O)C(Sc2ccccc2)c2ccccc2)CC1 (stereo unspecified),0.5
CC(C)NC(=O)COC(=O)c1ccc(NS(=O)(=O)c2ccc3c(c2)OCCO3)cc1,i
COc1ccc(C2CC(=O)Nc3cc(C)c(C)cc32)c(OC)c1OC (stereo unspecified),0.2
Cc1ccc(NC(=O)c2ccc(CSc3nnnn3C)cc2)cc1,i
Nc1sccc1C(=O)c1ccc(Cl)cc1,1.4
COc1ccccc1NC(=O)c1ccc(CN2CCOCC2)cc1,i
O=C(c1ccsc1)N1CCN(C(=O)c2cccs2)CC1,3.3
Cn1c(NC(=O)c2ccco2)c(-c2ccc(Cl)cc2)c(=O)c2ccccc21,1.6
CC(NCc1ccccc1)C1COc2ccccc2O1 (stereo unspecified),i
O=S(=O)(c1ccc(F)cc1)N1CCN(Cc2ccccc2C(F)(F)F)CC1,0.5
CN(C)C(CNS(=O)(=O)c1ccc(F)cc1)c1cccnc1 (stereo unspecified),0.7
Cn1c(=O)oc2cc(S(=O)(=O)N3CCCC(C(=O)NC4CCCc5ccccc54)C3)ccc21 (stereo unspecified),i
CCn1cc(C(=O)N2CC(C)CC(C)C2)c(=O)c2cc(S(=O)(=O)N3CCOCC3)ccc21 (stereo unspecified),i
Cn1nnc2c(NCc3ccco3)nccc21,17

Ordered by molar mass (ascending): part of the list above.
canonical_smiles,H5N1 CPE
Cn1nnc2c(NCc3ccco3)nccc21,17
CC(NCc1ccccc1)C1COc2ccccc2O1 (stereo unspecified),i
CN(C)C(CNS(=O)(=O)c1ccc(F)cc1)c1cccnc1 (stereo unspecified),0.7

Following part:
canonical_smiles,H5N1 CPE
CCOC(=O)c1ccc(NC(=O)Nc2ccc3c(c2)OCCO3)cc1,1.3
CC1CCCN(C(=O)C2CCN(CC3CC=CCC3)CC2)C1 (stereo unspecified),0.2
CCOC(=O)N1CCN(C(=O)C2CCCCC2)CC1,i
Cc1cc([N+](=O)[O-])nn1CC(=O)N1CCc2ccccc2C1,i
CCN(CCO)C1CC(=O)N(c2ccccc2C)C1=O (stereo unspecified),1.4
CN(C)S(=O)(=O)c1cccc(-c2nnc(SCc3ccc4c(c3)OCCO4)o2)c1,i
N#C/C(=C\c1ccco1)Sc1nc2ccccc2s1,1.8
COC(=O)c1ccccc1NC(=O)N1CCN(C(=O)c2ccco2)CC1,i
O=C1CSC(c2ccccn2)N1c1cccc(Cl)c1 (stereo unspecified),i
COc1cccc(-n2nnc3c(=O)n(CC(=O)NC4CCCC4)cnc32)c1,2.6
CSc1nc2ccccc2n1C(=O)NC1CCCCC1,i
Cc1ccccc1NC(=O)CCN1CCN(C/C=C/c2ccccc2)CC1,i
CC(=O)N=c1cccc(NC(C)=O)n1O,i
COc1cc(/C=C(/NC(=O)c2ccccc2)C(=O)Nc2ccccc2)c([N+](=O)[O-])cc1OC,i
CCOc1ccc(N(CC(=O)NCC2CCCO2)S(=O)(=O)c2ccc(SC)cc2)cc1 (stereo unspecified),i
C=CCn1c(O)c(C(C)=NCCC2=CCCCC2)c(=O)[nH]c1=O,i

The list goes on; it opens with the 2 that closed the last part.
canonical_smiles,H5N1 CPE
CCOc1ccc(N(CC(=O)NCC2CCCO2)S(=O)(=O)c2ccc(SC)cc2)cc1 (stereo unspecified),i
C=CCn1c(O)c(C(C)=NCCC2=CCCCC2)c(=O)[nH]c1=O,i
O=C(Oc1cccc2ccccc12)c1ccco1,i
CCn1c(SCc2nc3ccccc3s2)nnc1-c1ccccc1,0.9
c1ccn2c(Cc3nnc4ccccn34)nnc2c1,0.4
Cc1ccc(N2CC(C(=O)N3CCc4ccccc43)CC2=O)cc1 (stereo unspecified),0.4
Cc1c(Cl)cccc1NC(=O)CSc1ncnc2c1cnn2CCc1ccccc1,i
Clc1ccccc1SCc1nc2ccccc2[nH]1,0.1
COC(=O)c1ccc(NS(=O)(=O)c2ccc(OC)cc2)cc1,i
CC(=O)c1ccc(NC(=O)C2CCCNC2=O)cc1 (stereo unspecified),i
O=C(Nc1ccc2c(c1)OCO2)NC1(C(F)(F)F)Oc2ccccc2O1,i
Cc1nn(Cc2ccc(Cl)cc2)c2sc(C(=O)OCC(N)=O)cc12,i
Cc1ccc(-c2nc3ncccn3c2NC2CCCC2)o1,1.8
Cc1cccc(C)c1NC(=O)CSc1nc2ccccc2c(=O)[nH]1,0.5
CCCc1nc2ccccc2c(=O)n1-c1ccc(OC)cc1,0.1
CCCCn1c(-c2ccsc2)nc2c1c(=O)[nH]c(=O)n2CCC,5.8
CC(C)Oc1ccc(NC(=O)C2CCCNC2=O)cc1 (stereo unspecified),0.1
CCc1ccc2[nH]c(=O)c(CN(Cc3ccc(OC)cc3)Cc3nnnn3CCOC)cc2c1,1.9
CCCOC(=O)C1=C(C)NC2=C(C(=O)C(C(=O)OC)C(C)C2)C1c1ccc(N(C)C)cc1 (stereo unspecified),0.5
COc1cccc(-c2nc3n(n2)C(c2ccccc2Cl)C(C(N)=O)=C(C)N3)c1 (stereo unspecified),i
CC1Cc2ccccc2N1C(=O)CSC1=NCCS1 (stereo unspecified),i
CCc1nnc(-n2nc(C)cc2-c2ccccc2)n1N,0.6
CC(C)(C)n1nnnc1C(c1cccs1)N1CCCC2(CCCCC2)C1 (stereo unspecified),8.4
CCSc1nnc(C(N)Cc2ccccc2)o1 (stereo unspecified),i
O=C(N/C(=C\c1ccco1)C(=O)N1CCCC1)c1cccs1,0.4
Cn1c(=O)cc(OCCCC(=O)NCc2ccc3c(c2)OCO3)c2ccccc21,2.7
Cc1occc1-c1nnc(SCC(=O)c2cc3ccccc3oc2=O)o1,0.9
CCc1nnc(NC(=O)C2Cc3ccccc3CN2S(=O)(=O)c2cccs2)s1 (stereo unspecified),i
COc1cccc(C2NC(=O)NC(O)(C(F)(F)F)C2C(=O)c2cccnc2)c1OC (stereo unspecified),i
NS(=O)(=O)c1ccc(NC(=O)C2COc3ccccc3O2)cc1 (stereo unspecified),0.4
C=CCNC(=O)c1ccc2nc(-c3ccccc3)c(-c3ccccc3)nc2c1,1.2
O=c1cc(-c2ccco2)oc2ccc(Cl)cc12,2.5
CC(C)n1nc(C(=O)NCCc2ccc(S(N)(=O)=O)cc2)c2ccccc2c1=O,i
COC(=O)CN(c1ccccc1C)S(C)(=O)=O,0.1
Oc1ccc(-c2csc(NCc3ccco3)n2)cc1,i
O=C(/C=C/c1ccccc1)c1ccoc1,i
Cc1[nH]c2ccccc2c1C(=O)CN1CCC(C(N)=O)(N2CCCCC2)CC1,i
O=C(COc1ccc(Cl)cc1)NCCC1=CCCCC1,i
CC1=NN(c2ccccc2)C(=O)C1C(=O)c1ccc(Cl)cc1 (stereo unspecified),i
CCn1nc(C)c(/C=N/NC(=O)c2ccc3c(c2)c(C)c(C)n3Cc2ccccc2)c1C,0.5
COc1cccc(-c2cc(C(F)(F)F)nc(-n3cncn3)n2)c1,7.6
CNC(=S)NNC(=O)COc1ccccc1C,i
O=C(NNc1nc2ccccc2s1)C1CC1,i
O=C1CCCN1C(=O)c1cncc(Br)c1,i
COC(=O)NNC(=O)c1cccc(C)c1,i
CCOC(=O)N1CCN(c2nc(C)c3c(n2)CCCC3=O)CC1,0.8
CCC(=O)N1CC2(CC(c3cccc([N+](=O)[O-])c3)=NO2)C[C@H]1C(=O)NCC(N)=O (stereo partly specified),0.1
C=CCn1c(SCc2ccc(C#N)cc2)nnc1-c1ccccc1,i
COc1ccc(C(O)(C(=O)NNc2ccc(C)cc2)c2cccs2)cc1 (stereo unspecified),i
Cc1ccc(C)c(-n2nnnc2SCC(=O)Nc2c(C)n(C)n(-c3ccccc3)c2=O)c1,0.2
Cc1cccc(OCc2nc(C#N)c(NCc3ccc4c(c3)OCO4)o2)c1,i
O=C(CNC1=NCCC1)c1ccc2c(c1)OCCO2,0.5
O=C(Cc1csc(Nc2nc(=S)[nH]c3ccccc23)n1)NCc1ccc(Cl)cc1,i
CCOc1ccc(Nc2nc3c(c(=O)[nH]2)CCC3)cc1,1.5
O=c1cc(-c2ccccc2)[nH]n1-c1nc2ccccc2[nH]1,i
CC(C)Cn1c(=O)c2c(nc3n2CCCN3CCc2ccccc2)n(C)c1=O,i
CC1=C(C(=O)Nc2ccccc2)C(c2ccc(C(C)C)cc2)N2C(=O)CSC2=N1 (stereo unspecified),1.3
Cc1cc(C(=O)CN2C(=O)c3cccc(N)c3C2=O)c(C)n1Cc1cccs1,i

The results go on.
canonical_smiles,H5N1 CPE
Brc1cccc(-c2nnc3sc(CN4CCC5(CC4)OCCO5)cn23)c1,0.5
CN1CCC(=NNC(=O)C(=O)NCc2ccccc2)CC1,i
Cc1noc(C)c1C(=O)Nc1ccc(F)cc1F,i
COCCn1c(CN2CCC(Cc3ccccc3)CC2)nc2c1c(=O)n(C)c(=O)n2C,1.3
CC1(C)C(N(O)C(=O)Nc2ccccc2)N(c2cccc(Cl)c2)C(=O)N1O (stereo unspecified),i
O=C(Nc1ccc(F)cc1)Nc1ccc(Cl)cn1,0.2
